Vaccinia Venus: inhibitors of vaccinia virus (Venus reporter) | Potency, µM (highest dose often 36.5 µM), for the others: at the highest dose activity change, negative = inhibition, usual class: inhibitors | Vaccinia virus Venus reporter expression, fluorescence | actives 0.46% (n = 330,000); active means well fitted inhibition curve with a large enough effect; inconclusive means small, poorly fitted or top-dose-only effect; inactive means no such curve, though single readings can be large or run the other way; tested in A549 cells; also: nearly all actives have a fitted effect of over 30% in size; inactives centre near -10
Vaccinia mCherry: inhibitors of vaccinia virus infection (mCherry reporter signal); Vaccinia virus mCherry reporter infection, fluorescence; about a quarter of the inactives have no number; Potency, µM (titrated, usually from 36.5 µM), for the others: at the top dose activity change, negative = inhibition, usual class: inhibitors; actives 0.63% (n = 310,000); AID 720579; active = well fitted inhibition curve with a large enough effect; inconclusive = small, poorly fitted or top-dose-only effect; inactive = no such curve, though single readings can be large or run the other way; tested in A549 cells; also: nearly all actives have a fitted effect of over 35% in size; inactives centre near -10
* marks the source's active call; other numbers are inactive results; i = inactive; ? = inconclusive; / = no result given; & = joins results of further samples; [ ] = dose if it differs, or a comment. % is scaled to controls: 0 for no effect and ±100 for the full control effect; potency is read from the fitted curve at half-maximal effect. Rows were taken by chance (roughly 0.82% active in at least one column).

SMILES | Vaccinia Venus | Vaccinia mCherry
CC(C)Oc1ccc(/C=C(/NC(=O)c2ccccc2)C(=O)NC(Cc2ccccc2)C(=O)O)cc1 (stereo not given) | -2% | 7%
O=C(Cn1ccn(-c2ccc(F)cc2)c(=O)c1=O)NCCc1ccccc1 | 0% | -7%
COC(=O)c1cccc(NC(=O)C2COc3ccccc3O2)c1C (stereo not given) | -11% | -14%
CC1(Cc2cc(Cl)ccc2C(F)(F)F)C(=O)Nc2ccc(OC(F)(F)F)cc21 (stereo not given) | -26% | 14%
C=CCc1ccc(OCCCCNC(C)CC)c(OC)c1 (stereo not given) | -14% | -8%
CCOC(=O)C1=NN(c2ccc(OC)cc2)C2C(=O)N(c3ccccc3OC)C(=O)C12 (stereo not given) | -7% | i
COc1ccc(C2/C(=C(/O)c3ccc(C)cc3)C(=O)C(=O)N2C)cc1 (stereo not given) | -16% | -26%
CCCc1c(C(=O)N/N=C(\C)c2ccccc2O)nnn1-c1nonc1N | -17% | ?
O=C1CC(N2CCN(S(=O)(=O)c3ccccc3F)CC2)C(=O)N1c1ccccc1Cl (stereo not given) | -19% | -6%
Cc1cc(C)n(CC(=O)Nc2cc(F)ccc2F)c(=O)c1C#N | -6% | -6%
Cc1cc(C)nc(SCC(=O)NNS(=O)(=O)c2ccc(C#N)cc2)n1 | 7% | -5%
O=c1cccccc1NN=C1CCCCC1 | 7% | i
CCOP(=O)(OCC)C(NC(=O)c1cccc([N+](=O)[O-])c1)C(Cl)(Cl)Cl (stereo not given) | -9% | -5%
O=C(COc1ccccc1Cl)Nn1cnnc1 | -15% | /
COc1ccc(S(=O)(=O)N2CCC(C(=O)NCC3CCCCC3)CC2)cc1 | -7% | -11%
O=S(=O)(O)c1cc2oc(-c3ccccc3)nc2c2ccccc12 | 0% | -7%
O=C(CSc1nc2ccsc2c(=O)n1Cc1ccccc1F)NCc1ccccc1 | 0% | 5%
Cc1cc(NC(=O)c2cc(C3CC3)on2)n(-c2ccccc2)n1 | 0% | -18%
O=C(CSc1nnc(NC(=O)Cc2ccccc2)s1)NCC1CCCO1 (stereo not given) | -12% | -17%
Cc1cccc(C2N=C(N)Nc3nc4ccccc4n32)c1 (stereo not given) | -6%&-5% | -13%&-1%
O=C(CCS(=O)(=O)c1cccc2nsnc12)Nc1ccc(F)cc1 | 3% | 10%
Cc1ccc(F)cc1NC(=O)N1CCNC(=O)C1CC(=O)Nc1cc(Cl)ccc1Cl (stereo not given) | -14% | -27%
O=C(Nc1ccc(N2C(=O)C3C4C=CC(C4)C3C2=O)cc1)Nc1nncs1 (stereo not given) | -14% | -10%
CCc1ccccc1N1CC(C(=O)O)CC1=O (stereo not given) | -22% | /
Cc1ccc(C(=O)NCCc2ccc(S(N)(=O)=O)cc2)cc1[N+](=O)[O-] | -12% | i
CNc1cncc(-c2ccc(CN3CCOCC3)cc2)n1 | -19% | 12%
O=C(NCCc1ccccc1)C1CCCN(S(=O)(=O)c2cccs2)C1 (stereo not given) | -15% | ?
CC1CCC2C(=O)N(c3cccc(OS(=O)(=O)c4ccccc4)c3)C(=O)C2C1 (stereo not given) | -1% | i
COc1cccc(/C=C2\N=C(C3CCCCC3)OC2=O)c1OC | 0% | 3%
CCOc1ccc(C(=O)Nc2ccc(-n3nncc3-c3ccccc3)cc2)cc1OCC | -13% | -21%
CCCc1cc(C(=O)NCc2ccc(OC)cc2)no1 | 1% | i
CCN(CC)S(=O)(=O)c1ccc(N2CCN(c3ccccc3O)CC2)nc1 | -9% | ?
O=C(NNS(=O)(=O)c1ccc(F)cc1)c1ccccc1 | -9% | -13%
Cn1c(=O)c2c(-c3ccc(C(C)(C)C)cc3)n(N3CCOCC3)cc2n(C)c1=O | 7% | -2%
Cc1ncccc1C(=O)N1CCCC(c2cc(C(=O)Nc3ccc(C(C)(C)C)cc3)no2)C1 (stereo not given) | -11% | 6%
COc1cc2c(cc1O)[C@@H]1Cc3cc(O)c(OC)cc3[C@H](C2)N1C | -5% | -11%
CCOC(=O)c1c(C)[nH]c(C(=O)COC(=O)CNC(=O)c2ccc(Cl)cc2Cl)c1C | -17% | 2%
CCN(CC)CCNC(=O)c1ccc(Cn2c(=O)c3cccn3c3cccnc32)cc1 | -2% | -6%
Nc1ccc2oc(-c3cccc4ccccc34)nc2c1 | -12% | ?
O=C(NCc1nnc(SCC(=O)N2CCCC2)o1)c1ccccc1F | -14% | -13%
Cc1ccc(N2CC(C(=O)Nc3nc4ccc(S(C)(=O)=O)cc4s3)CC2=O)cc1C (stereo not given) | 8% | -7%
COc1ccc(-c2c(-c3cc(OC)cc(OC)c3)n(C)c3ccc(-c4ccc(OC)cc4F)cc23)cc1 | -27% | i
COc1ccc(C(O)c2nc(-c3ccc4c(c3)OCO4)cs2)cc1 (stereo not given) | 6% | 23%
Cc1nc2c(-c3ccccc3)c[nH]n2c(=O)c1Cc1ccccc1 | -21% | i
COc1cccc(CNc2nc3cc(-c4ccccc4)sc3c(=O)n2C)c1OC | -30% | ?

Individual results from the results shown:
For Vaccinia Venus, `Cc1nc2c(-c3ccccc3)c[nH]n2c(=O)c1Cc1ccccc1` is listed with -21%
For Vaccinia Venus, `O=C(NCc1nnc(SCC(=O)N2CCCC2)o1)c1ccccc1F` is listed with -14%

Following part
SMILES | Vaccinia Venus | Vaccinia mCherry
CCC(=O)N1CCC2(CC1)Oc1ccc(F)cc1C(=O)C21CC(c2cccnc2)=NO1 (stereo not given) | -11% | -2%
Clc1ccc(SCc2cc(N3CCOCC3)nc(-c3ccccn3)n2)cc1 | ? | 7.9µM*
CC1(C)CC(=O)c2sc(NS(=O)(=O)c3ccccc3)nc2C1 | -3% | -12%
Cc1ccc(NC(=O)c2sc3nc[nH]c(=O)c3c2C)cc1Cl | -6% | -18%
COc1ccccc1NC(=O)C(C)OC(=O)Cc1ccsc1 (stereo not given) | -5% | -4%
O=C(O)C1CC(=O)N(CCc2c[nH]c3ccccc23)C1 (stereo not given) | -5% | -10%
Cc1ccc2nc(N=C(N)N)nc(C)c2c1 | -20% | i
O=C(NCc1nnc2c(C(F)(F)F)cc(Cl)cn12)C1CCCC1 | 0%[7.34 µM] | i[7.34 µM]
COc1ccc(Br)c(C(=O)OCC(=O)N2CCc3ccccc32)c1 | -3% | -7%
COc1cc(OC)c(NC(=O)CSc2nccn2C)cc1Cl | -1% | -3%
CC[N+](C)(CC)CC(O)COCC1COc2ccccc2O1 (stereo not given) | -1% | i
Cc1ccc(/C=N/NC(=O)C(C)NC(=O)c2ccccc2)cc1 (stereo not given) | -7% | -5%
Cc1cc(S(=O)(=O)N2CCCc3ccccc32)ccc1-n1cnnn1 | 4% | 8%
O=C1CC(c2ccc(F)cc2)CC(O)=C1C1NCCc2ccccc21 (stereo not given) | -12% | /
COc1ccccc1-c1nc(SCC(=O)NCc2ccc(C)cc2)c2c(=O)n(C)c(=O)n(C)c2n1 | 1% | -3%
COCCOCCn1c(CCCO)nc2ccccc21 | -12% | /
CCN(CC)C(=O)c1ccc2sc([C@@H]3O[C@H](CO)[C@H](O)[C@H](O)[C@H]3O)nc2c1 | -5% | 30%
CC(C)C(=O)NC(=S)Nc1sc2c(c1C(N)=O)CCCC2 | ? | -15%
O=C(Cc1csc2nc(-c3ccccc3)cn12)NCc1ccc(F)cc1 | -14% | -11%
CCc1nc(Nc2ccc(OC)cc2OC)c2oc3ccccc3c2n1 | ? | -12%
CC1CCN(CCCOc2ccc(Br)cc2Cl)CC1 | 1% | -1%
CC(C)CCn1c(N2CCc3ccccc3C2)nc2c1c(=O)[nH]c(=O)n2C | ? | ?
O=[N+]([O-])c1cccc(CSc2nnc3ccccn23)c1 | 1% | 3%
CC(C)(C)c1ccc(C(O)c2ncc(-c3ccc4ccccc4c3)[nH]2)cc1 (stereo not given) | -1% | 22%
CCCCOc1ccccc1C(=O)N(Cc1cccc(F)c1)C1CCS(=O)(=O)C1 (stereo not given) | -10% | -6%
CC(NC(=O)c1cc(=O)[nH]c2ccccc12)c1ccc(F)cc1F (stereo not given) | -11% | i
O=C(CNS(=O)(=O)c1ccc(Br)s1)Nc1ccc2c(c1)OCCO2 | -9% | i
Cc1c(Cl)cccc1NC(=S)NC(=O)CCN1C(=O)c2ccccc2C1=O | -2% | -25%
COc1ccc(N2C(=O)CC(Cc3ccccc3OC)C2=O)cc1 (stereo not given) | -4% | i
O=c1cc(Nc2cccc(Br)c2)[nH]c(=O)[nH]1 | -2% | 0%
O=C1CCc2cc(S(=O)(=O)N3CCN(c4ccc(F)cc4)CC3)cc3c2N1CC3 | -16% | -15%
CCN1CCN(Cc2ccc(NC(=O)c3cc(NC(=O)c4cncc(-c5ccc(C#N)cc5)c4)cc(OC)c3)cc2C(F)(F)F)CC1 | -22%&-18% | ?
CC1CC(C)CN(CC(O)COCc2ccccc2F)C1 (stereo not given) | -8% | i
CCOC(=O)c1cnc2c(C)cc(C)cc2c1Nc1cccc(C(=O)O)c1 | -6% | -12%
COC(=O)CCC(=O)Nc1cc(OC)c(OC)cc1Cc1nccc2cc(OC)c(OC)cc12 | -3% | i
O=C(O)c1cccc(NC(=S)N/N=C/c2ccccc2OCc2ccc(Br)cc2)c1 | -12% | -1%
CN(C)c1c([N+](=O)[O-])ncn1C | 15% | /
CCOC(=O)c1cc2sccc2n1CC(=O)N1CCN(C(=O)c2ccco2)CC1 | -7% | -12%
C[C@H](NC(=O)c1ccco1)C(=O)NNC(=O)c1ccc(F)cc1 | 5% | i
COc1ccc(-c2cc(=O)oc3cc(OC(C)C(=O)NC4CC4)ccc23)cc1 (stereo not given) | -5% | -1%
CCOc1cc(N2CCOCC2)c(OCC)cc1NC(=O)c1ccc(NC(C)=O)cc1 | -10% | -12%
CC(C)c1ccc(C(=O)NC2=NCCS2)cc1 | -8% | i
CSc1sc(C(=O)O)c2c1C(=O)CCC2 | -1% | /
CSCCC(NC(N)=O)C(=O)Nc1ccc(C)cc1 (stereo not given) | -2% | 0%
O=C(c1cc(-c2ccc(O)cc2)on1)N1CCOCC1 | -3% | -29%
Cc1cccc(N2CCN(C3(c4ccccc4)C(=O)c4ccccc4C3=O)CC2C)c1 (stereo not given) | 0% | -9%
COc1ccc2c(C)cc(SCC(=O)N(C)C3CCS(=O)(=O)C3)nc2c1 (stereo not given) | 0% | 1%
CC(=O)c1ccc(NC(=O)Cn2cnc3nc4c(cc3c2=O)CC(C)CC4)cc1 (stereo not given) | -12% | -12%
CCCCn1c2ccc(F)cc2c2nnc(SCCN(CC)CC)nc21 | -17% | -15%
Fc1ccc(CN2CCc3nc(Nc4ccccc4)ncc3C2)cc1F | -16% | -20%
COC(=O)C(NNc1ccc(F)cc1)(NC(=O)c1ccccc1)C(F)(F)F (stereo not given) | -13% | i
Cn1ccnc1C1CCCCN1C(=O)CN1Cc2ccccc2OC(c2ccccc2F)C1 (stereo not given) | -7% | -15%
CC(C)C(=O)NC(=S)Nc1ccccc1N1CCN(C(=O)c2ccc(Cl)cc2)CC1 | -7% | -20%
O=C(CCN1CCCCCC1)Nc1ccc(F)cc1 | -16% | ?
CCOc1ccc(S(=O)(=O)N2CCC(C(=O)N3CCN(C)CC3)CC2)cc1Cl | -16% | -25%
O=C1c2c(-c3ccc(Br)cc3)noc2CCN1Cc1cn(Cc2cccnc2)nn1 | -17% | ?
COc1ccc(N2CCN(C(c3cccs3)c3nnnn3C3CCCC3)CC2)cc1 (stereo not given) | -14% | -24%
CCC(C)NC(=O)c1cn(CC)c2ccc(S(=O)(=O)N3CCCCC3)cc2c1=O (stereo not given) | -22%&-13% | ?
Cc1ccc(C2(C)NC(=O)N(CC(=O)N3CCc4ccccc43)C2=O)cc1 (stereo not given) | -24% | -10%

Molecules listed so far containing a Cl atom, in the order listed:
SMILES | Vaccinia Venus | Vaccinia mCherry
CC1(Cc2cc(Cl)ccc2C(F)(F)F)C(=O)Nc2ccc(OC(F)(F)F)cc21 (stereo not given) | -26% | 14%
O=C1CC(N2CCN(S(=O)(=O)c3ccccc3F)CC2)C(=O)N1c1ccccc1Cl (stereo not given) | -19% | -6%
CCOP(=O)(OCC)C(NC(=O)c1cccc([N+](=O)[O-])c1)C(Cl)(Cl)Cl (stereo not given) | -9% | -5%
O=C(COc1ccccc1Cl)Nn1cnnc1 | -15% | /
Cc1ccc(F)cc1NC(=O)N1CCNC(=O)C1CC(=O)Nc1cc(Cl)ccc1Cl (stereo not given) | -14% | -27%
CCOC(=O)c1c(C)[nH]c(C(=O)COC(=O)CNC(=O)c2ccc(Cl)cc2Cl)c1C | -17% | 2%
Clc1ccc(SCc2cc(N3CCOCC3)nc(-c3ccccn3)n2)cc1 | ? | 7.9µM*
Cc1ccc(NC(=O)c2sc3nc[nH]c(=O)c3c2C)cc1Cl | -6% | -18%
O=C(NCc1nnc2c(C(F)(F)F)cc(Cl)cn12)C1CCCC1 | 0%[7.34 µM] | i[7.34 µM]
COc1cc(OC)c(NC(=O)CSc2nccn2C)cc1Cl | -1% | -3%
CC1CCN(CCCOc2ccc(Br)cc2Cl)CC1 | 1% | -1%
Cc1c(Cl)cccc1NC(=S)NC(=O)CCN1C(=O)c2ccccc2C1=O | -2% | -25%
CC(C)C(=O)NC(=S)Nc1ccccc1N1CCN(C(=O)c2ccc(Cl)cc2)CC1 | -7% | -20%
CCOc1ccc(S(=O)(=O)N2CCC(C(=O)N3CCN(C)CC3)CC2)cc1Cl | -16% | -25%
